Vaccinia stage = blocks a specific stage of Vaccinia orthopoxvirus infection, primary screen, cell-based, single point; Vaccinia-infected cells, mCherry/Venus stage reporter fluorescence; active compounds read low; some inactives read as strong as hits; activity change (mCherry), % (test concentration not listed); 0.01% of 89,000 active; AID 1053133, 2014;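 active = mCherry past -33% and 40 or more points under the early reporter, replicates agreeing; inconclusive = past -33% without that gap or agreement; tested in A549 cells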;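 also: scaled between vehicle wells and reference inhibitor wells; 23 nL library stock went into each well; one replicate is shown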
Vaccinia stage Venus = also measured in Vaccinia stage; calls as there; activity change (Venus), %; measured here: Venus reporter, other viral stage;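 negative = less Venus signal; first of two replicates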
* hit, by the source's call; u = inconclusive; x = no result given. An excerpt; the hit share may differ from the screen's.

Below each SMILES – Vaccinia stage	Vaccinia stage Venus
CCNC(=O)C[C@@H]1CC[C@H](NS(=O)(=O)c2ccc(F)cc2)[C@H](CO)O1
→ 1.9	3.8
N#C[C@H]1[C@@H](c2ccccc2)[C@H](CO)N1C(=O)Cc1ccccn1
→ 8.7	5.3
C[C@@H]1CCCCO[C@H](CN(C)C)[C@H](C)CN([C@H](C)CO)C(=O)c2cc(NS(=O)(=O)c3ccc(Cl)cc3)ccc2O1
→ -14.7	-8.1
O=C(CN1CCOCC1)N1CC(=O)N2[C@@H](CO)[C@H](c3ccc(/C=C/c4ccccc4)cc3)[C@@H]2C1
→ -4.6	-6.3
O=C(C[C@@H]1CC[C@@H]2[C@H](COC[C@H](O)CN2S(=O)(=O)c2ccc(Cl)cc2)O1)NCCN1CCCC1
→ 6.7	6.7
CC(C)NC(=O)N(C)C[C@H]1Oc2ccc(NC(=O)Nc3ccc(C(F)(F)F)cc3)cc2CC(=O)N([C@H](C)CO)C[C@H]1C
→ -12.1	-4.6
COc1ccc(CNC(=O)C[C@@H]2CC[C@H]3[C@H](COc4ccc(NC(=O)C5CC5)cc4C(=O)N3C)O2)cc1
→ -4.2	-10.6
C[C@@H]1CN([C@H](C)CO)C(=O)c2cccc(NC(=O)CCCCCC(=O)Nc3ccccc3N)c2O[C@@H]1CN(C)Cc1ccc(-c2ccccc2)cc1
→ -2.3	-15.3
CCS(=O)(=O)Nc1ccc2c(c1)C(=O)N(C)C[C@H](OC)[C@H](C)CN(C(=O)COC)[C@@H](C)CO2
→ 18.7	13.6
COc1ccc2c3c([nH]c2c1)[C@@H](CO)N(C(=O)NC1CCCC1)CC31CCN(C(=O)Nc2cccc(F)c2)CC1
→ -17.7	-33.5
CC(C)NC(=O)Nc1cccc2c1O[C@@H](CN(C)Cc1ccccc1)[C@@H](C)CN([C@H](C)CO)C2=O
→ 4.3	3.5
CN(C)CCCNC(=O)C[C@@H]1CC[C@H]2[C@@H](COC[C@@H](O)CN2Cc2ccc(Cl)c(Cl)c2)O1
→ u	x
COc1cccc(-c2cccc(-c3nc(C(=O)Nc4ccc(-c5ccccc5)cc4)cc4c3[C@@H](CCO)N(S(=O)C(C)(C)C)C4)c2)c1 (stereo partly specified)
→ 10.9	39.5
C[C@H]1CN([C@@H](C)CO)C(=O)Cc2cc(NS(=O)(=O)c3cn(C)cn3)ccc2O[C@H]1CN(C)S(=O)(=O)c1ccc(Cl)cc1
→ -3.5	-2.1
C[C@@H]1CCCCO[C@@H](CN(C)S(=O)(=O)c2ccc(F)cc2)[C@@H](C)CN([C@@H](C)CO)C(=O)c2cc(NC(=O)Nc3cccc4ccccc34)ccc2O1
→ 7.2	2.1
COc1ccc(-c2ccc([C@@H]3[C@@H](CO)N4C(=O)CN(C(=O)c5cccnc5)C[C@H]34)cc2)cc1
→ 1.1	2.1
CNC[C@H]1OCCCC[C@@H](C)Oc2ccc(NC(=O)Nc3ccccc3)cc2C(=O)N([C@H](C)CO)C[C@@H]1C
→ 1.0	4.0
CCCNC(=O)[C@H]1[C@H](CO)[C@H]2Cn3c(ccc(/C=C/c4ccccc4)c3=O)[C@@H]1N2CCC
→ -0.2	-4.6
COCCNC(=O)C[C@@H]1C[C@H]2c3cc(NC(=O)NC4CCCC4)ccc3O[C@H]2[C@H](CO)O1
→ 10.3	6.6
C[C@@H]1CN([C@@H](C)CO)C(=O)c2cccc(NS(=O)(=O)c3ccc(Cl)cc3)c2O[C@H]1CN(C)C(=O)Nc1ccc(C(F)(F)F)cc1
→ 6.8	6.5
CO[C@H]1CN(C)C(=O)c2cc(NC(=O)c3ccccc3)ccc2OC[C@H](C)N(C(=O)C2CC2)C[C@@H]1C
→ 0.6	4.2
COCC(=O)N(C)C[C@@H]1Oc2ncc(C#Cc3ccccc3)cc2C(=O)N([C@@H](C)CO)C[C@@H]1C
→ 7.2	-1.0
CNC(=O)C[C@@H]1CC[C@H]2[C@@H](COc3ccc(NC(=O)c4ccc(F)cc4)cc3C(=O)N2C)O1
→ 5.8	9.7
CC(C)CC#Cc1cnc2c(c1)C(=O)N([C@H](C)CO)C[C@@H](C)[C@@H](CN(C)Cc1ccccn1)O2
→ -2.7	-12.5
N#Cc1cccc(-c2ccc([C@@H]3[C@@H](CO)N4CCCCN(C(=O)Cc5ccncc5)C[C@@H]34)cc2)c1
→ 21.7	9.2
COCC(=O)Nc1ccc2c(c1)C(=O)N(C)C[C@H](OC)[C@@H](C)CN(Cc1ccccc1)[C@H](C)CO2
→ -7.0	2.1
COCC(=O)N(C)C[C@H]1Oc2cc(C#Cc3ccccc3)ccc2S(=O)(=O)N([C@H](C)CO)C[C@H]1C
→ -30.1	-29.8
Cc1noc(C)c1S(=O)(=O)N(C)C[C@H]1Oc2ccc(NS(=O)(=O)c3cccs3)cc2CC(=O)N([C@@H](C)CO)C[C@H]1C
→ 16.6	11.2
C[C@@H]1CN([C@@H](C)CO)C(=O)c2cccc(NC(=O)C3CCOCC3)c2O[C@@H]1CN(C)C
→ -15.0	-28.6
C[C@H](CO)N1C[C@H](C)[C@@H](CN(C)Cc2ccncc2)Oc2ccc(NC(=O)Cc3cn(C)c4ccccc34)cc2CC1=O
→ -20.5	-24.1
COc1cccc(-c2ccc3n(c2=O)C[C@H]2[C@H](CO)[C@@H](C(=O)NCCN4CCCCC4)N(C)[C@@H]32)c1
→ 4.7	8.7
O=C(C[C@@H]1C[C@H]2c3cc(NS(=O)(=O)c4ccc(F)cc4)ccc3O[C@H]2[C@@H](CO)O1)NCc1ccc(Cl)cc1
→ -11.9	-7.2
O=C(C[C@@H]1CC[C@H](NC(=O)c2ccccn2)[C@H](CO)O1)NCc1cccc(F)c1
→ 10.3	-0.5
C[C@@H]1CN([C@@H](C)CO)C(=O)c2cc(NC(=O)Nc3ccc4c(c3)OCO4)ccc2O[C@@H](C)CCCCO[C@H]1CN(C)C
→ -5.4	-5.0
O=C(c1ccccc1)N1CC2(C1)[C@H](c1ccccc1)[C@@H](CO)N2C(=O)CC1CC1
→ 3.9	7.2
Cc1noc(C)c1NC(=O)Nc1ccc2c(c1)C(=O)N(C)[C@H]1CC[C@H](CC(=O)N[C@@H]3CCN(Cc4ccccc4)C3)O[C@@H]1CO2
→ -1.9	-6.0
C[C@H]1CN([C@@H](C)CO)C(=O)c2cc(NC(=O)CCN3CCOCC3)ccc2O[C@H]1CN(C)C(=O)Nc1ccccc1
→ 15.7	11.6
C[C@@H]1CCCCO[C@@H](CN(C)S(=O)(=O)c2ccc(F)cc2)[C@H](C)CN([C@@H](C)CO)C(=O)c2cc(NS(=O)(=O)c3cn(C)cn3)ccc2O1
→ 7.4	-2.5
C[C@@H]1CCCCO[C@@H](CN(C)C(=O)C2CCCCC2)[C@@H](C)CN([C@H](C)CO)C(=O)c2cc(N(C)C)ccc2O1
→ 0.4	0.4
N#C[C@H]1[C@H](c2ccccc2C2=CCCC2)[C@@H](CO)N1C(=O)Cc1ccncc1
→ 3.1	-3.3
COc1ccc(S(=O)(=O)N(C)C[C@H]2OCCCC[C@@H](C)Oc3ccc(NC(=O)Nc4ccc(F)cc4)cc3C(=O)N([C@H](C)CO)C[C@@H]2C)cc1
→ 1.3	-0.2
O=C(NC1Cc2ccccc2C1)[C@@H]1[C@@H](CO)[C@@H]2Cn3c(ccc(C4=CCCC4)c3=O)[C@H]1N2CC1CC1
→ 3.7	9.1
CN1CCN(C(=O)C[C@H]2C[C@@H]3c4cc(NS(C)(=O)=O)ccc4O[C@@H]3[C@H](CO)O2)CC1
→ 6.9	2.9
Cc1ccccc1-c1cnc2c(c1)C(=O)N([C@@H](C)CO)C[C@H](C)[C@@H](CN(C)C(=O)CN(C)C)O2
→ 18.8	9.3
O=C(Cc1cccnc1)N1CCCCN2[C@H](C1)[C@@H](c1ccc(C#CC3(O)CCCC3)cc1)[C@@H]2CO
→ 29.5	9.9
C[C@@H]1CN([C@@H](C)CO)C(=O)Cc2cc(NC(=O)C3CCCCC3)ccc2O[C@H]1CN(C)Cc1ccc(C(=O)O)cc1
→ 5.7	-3.9
C[C@H](CO)N1C[C@H](C)[C@H](CN(C)C(=O)NC2CCCCC2)Oc2ccc(NS(=O)(=O)c3ccccc3)cc2C1=O
→ 16.2	12.3
OC[C@@H]1[C@@H](c2ccc(C#CC3(O)CCCC3)cc2)[C@@H]2CN(Cc3ccncc3)CCCCN12
→ 15.9	18.4
C/C=C/c1ccc([C@@H]2[C@@H](CN(CC)C(=O)CC)N(C(C)=O)[C@H]2CO)cc1
→ 8.0	0.8
CN1CCN(C(=O)C[C@H]2CC[C@@H]3[C@H](COc4ccc(NC(=O)C5CCCCC5)cc4C(=O)N3C)O2)CC1
→ -7.7	-0.3
O=C(C[C@H]1C[C@H]2c3cc(NC(=O)Cc4ccncc4)ccc3O[C@H]2[C@@H](CO)O1)NCc1cccc(F)c1
→ 1.1	7.5
Cc1cc(C(=O)Nc2cccc3c2O[C@@H](CN(C)C(=O)NC(C)C)[C@H](C)CN([C@@H](C)CO)C3=O)n(C)n1
→ 20.4	10.1
CS(=O)(=O)N1Cc2cc(C(=O)NCC3CC3)nc(-c3cccc(-c4cncnc4)c3)c2[C@H]1CCO
→ 14.9	9.9
CO[C@H]1CN(C)C(=O)c2cc(NC(C)=O)ccc2OC[C@H](C)N(Cc2nccs2)C[C@@H]1C
→ -14.2	-4.4
C[C@@H]1CCCCO[C@@H](CN(C)S(=O)(=O)c2cn(C)cn2)[C@@H](C)CN([C@H](C)CO)C(=O)c2cc(NC(=O)c3ccccc3)ccc2O1
→ 22.1	17.1
CCC(=O)N[C@H]1CC[C@H](CCNC(=O)Nc2ccc(C(F)(F)F)cc2)O[C@H]1CO
→ -28.5	-18.1
O=S(=O)(NC[C@H]1[C@H](c2ccccc2)[C@H](CO)N1CC1CC1)c1ccccc1
→ 6.0	8.8
COc1cccc(NC(=O)N(C)C[C@H]2OCc3ccccc3-c3c(n(C)c4ccccc34)C(=O)N([C@@H](C)CO)C[C@H]2C)c1
→ u	x
CCC(=O)N(C)C[C@@H]1Oc2cc(C#CC3(O)CCCC3)ccc2S(=O)(=O)N([C@@H](C)CO)C[C@@H]1C
→ 23.6	27.1
C[C@H](NC(=O)C[C@H]1CC[C@@H]2[C@H](COC[C@@H](O)CN2C(=O)Nc2cc(Cl)cc(Cl)c2)O1)c1ccccc1
→ u	x

Record cards, as listed above. Order of screens: Vaccinia stage, Vaccinia stage Venus
`O=C(C[C@@H]1CC[C@H](NC(=O)c2ccccn2)[C@H](CO)O1)NCc1cccc(F)c1` in the list: 10.3, -0.5
`C[C@H]1CN([C@@H](C)CO)C(=O)c2cc(NC(=O)CCN3CCOCC3)ccc2O[C@H]1CN(C)C(=O)Nc1ccccc1` in the list: 15.7, 11.6
`O=C(Cc1cccnc1)N1CCCCN2[C@H](C1)[C@@H](c1ccc(C#CC3(O)CCCC3)cc1)[C@@H]2CO` in the list: 29.5, 9.9
`N#C[C@H]1[C@H](c2ccccc2C2=CCCC2)[C@@H](CO)N1C(=O)Cc1ccncc1` in the list: 3.1, -3.3

More structures.
Below each SMILES – Vaccinia stage	Vaccinia stage Venus
C/C=C/c1ccc2c(c1)O[C@H](CN(C)Cc1ccc(C(=O)O)cc1)[C@H](C)CN([C@H](C)CO)S2(=O)=O
→ 1.4	2.3
C[C@@H]1CN([C@H](C)CO)C(=O)c2cc(NC(=O)Cc3cn(C)c4ccccc34)ccc2O[C@H]1CN(C)S(=O)(=O)c1ccc(Cl)cc1
→ 2.6	0.8
COC(=O)N(C)C[C@@H]1OCc2ccccc2-c2ccccc2C(=O)N([C@H](C)CO)C[C@@H]1C
→ 38.9	29.8
CCCC#Cc1ccc2c(c1)O[C@@H](CN(C)CCC)[C@H](C)CN([C@@H](C)CO)S2(=O)=O
→ -32.0	-23.4
Cc1ccc(-c2ccc(C3[C@@H]4CN(Cc5cccnc5)C[C@H]3N4)cc2)cc1 (stereo partly specified)
→ u	-5.4
C[C@@H]1CN([C@H](C)CO)C(=O)Cc2cc(NC(=O)c3ccncc3)ccc2O[C@@H]1CN(C)C
→ 21.4	13.5
O=C(NCC[C@@H]1CC[C@H](NC(=O)C2CCCC2)[C@H](CO)O1)c1cnccn1
→ -6.7	-6.3
CC(C)NC(=O)N[C@H]1CC[C@H](CCNC(=O)C2CCOCC2)O[C@@H]1CO
→ 22.2	22.0
COc1ccc(S(=O)(=O)N(C)C[C@@H]2Oc3c(NC(=O)Nc4ccc(C(F)(F)F)cc4)cccc3C(=O)N([C@@H](C)CO)C[C@@H]2C)cc1
→ -2.7	-10.3
CCO[C@@H]1OC(C(=O)N2CCN(Cc3ccc4c(c3)OCO4)CC2)=C[C@H](C2CCCCC2)[C@H]1CCCO
→ u	x
CC(C)NC(=O)N1CC2(C1)[C@@H](c1ccccc1)[C@@H](CO)N2C(=O)C1CC1
→ 8.0	15.3
C[C@@H]1CN([C@H](C)CO)C(=O)c2cc(NS(C)(=O)=O)ccc2O[C@@H](C)CCCCO[C@@H]1CN(C)C(=O)CCC(F)(F)F
→ 11.8	9.6
CO[C@@H]1CN(C)C(=O)c2cc(NS(=O)(=O)c3ccccc3)ccc2OC[C@@H](C)N(Cc2nccs2)C[C@H]1C
→ 1.0	-5.8
COc1ccccc1-c1ccc2c(c1)O[C@H](CN(C)C(C)=O)[C@@H](C)CN([C@@H](C)CO)S2(=O)=O
→ -1.9	-8.4
O=C(C1CCCC1)N1C[C@@H]2[C@H](c3ccccc31)[C@H](CO)N2C(=O)Nc1cccc(F)c1
→ -0.4	-0.6
CO[C@@H]1CN(C)C(=O)c2ccc(NC(=O)c3nc4ccccc4s3)cc2OC[C@H](C)N(Cc2ccncc2)C[C@H]1C
→ -27.1	-22.8
COc1ccc(NC(=O)N(C)C[C@H]2OCc3ccccc3-c3c(n(C)c4ccccc34)C(=O)N([C@@H](C)CO)C[C@H]2C)c(OC)c1
→ u	x
COCC(=O)N1CC2(C1)[C@@H](c1ccccc1)[C@@H](CO)N2C(=O)c1cccnc1
→ 2.9	7.2
COc1ccc2c3c(n(C)c2c1)[C@@H](CO)N(Cc1cccc(Cl)c1)CC31CCN(C(=O)C2CC2)CC1
→ -29.8	-24.8

Bioassay records from PubChem.
